CBX7 AlphaScr: CBX7 chromodomain binding inhibitors, primary screen, biochemical, AlphaScreen. Chromobox protein homolog 7 (Homo sapiens), O95931. AlphaScreen His6-CBX7 / biotin-H3K27me3 peptide binding; active compounds read low. normalised signal (fraction of DMSO) (no concentration beside the values). 1.1% of 66,000 active; in the data active means normalised signal below about 0.5;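 further: 100 nL library stock added to about 20 µL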
Target sequence (O95931 whole entry, looked up): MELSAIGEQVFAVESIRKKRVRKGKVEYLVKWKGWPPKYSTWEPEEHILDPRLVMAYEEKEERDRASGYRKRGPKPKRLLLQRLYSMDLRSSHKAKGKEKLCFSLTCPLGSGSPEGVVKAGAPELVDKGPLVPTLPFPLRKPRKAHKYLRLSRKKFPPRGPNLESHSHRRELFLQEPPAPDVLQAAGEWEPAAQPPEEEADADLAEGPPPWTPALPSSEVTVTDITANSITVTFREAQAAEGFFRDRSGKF
CBX7 AlphaScr z-score: recorded beside CBX7 AlphaScr, whose call it bears; z-score; measured here: z-score of CBX7 signal; some inactives read as strong as hits; reference of the scale not given here;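 same signal on another scale; lower means less binding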
Numbers without * were called inactive; & = joins results of further samples.

Molecule	CBX7 AlphaScr z-score	CBX7 AlphaScr
CCC(=O)N1CCc2cc(S(=O)(=O)Nc3cccc(SC)c3)ccc21	-0.71	0.82
COc1ccc(-c2nc(-c3ccc(C)cc3)no2)cc1OC	0.078	1.1
O=C(O)[C@H](Cc1ccccc1)N1C(=O)c2ccncc2C1=O	-1.2	0.9
Cn1c(=O)c2c(ncn2CC(=O)Nc2ccc(Br)cc2F)n(C)c1=O	4.2	1.1
Cc1cc2cc(CCNC(=O)c3c(F)cccc3F)c(=O)[nH]c2cc1C	1.2	1
COc1ccc(-c2nc(-c3cccc4ccccc34)[nH]c2-c2ccc(OC)cc2)cc1	-4.3	0.83
COC(=O)c1ccc(C(=O)NCCc2c(C)[nH]c3ccccc23)cc1	-0.22	0.98
CCc1nnc(NC(=O)Nc2cccs2)s1	0.5	1
Cn1ccnc1SCC(=O)Nc1ccc(F)cc1	0.97	1
CCN(CC)CCNC(=O)c1cccc(NC2=NC3CS(=O)(=O)CC3S2)c1 (stereo not drawn)	0.15	1
COc1cc2c(C(=O)NCCN(C)C)cn(CC(C)C)c(=O)c2cc1OC	2.6	1.1
Cc1ccc(CNC(=O)c2ccc3c(c2)NC(=O)c2ccccc2N3)cc1	1.9	1.1
Cc1ccc2c(c1)-c1c(cnn1CC(=O)N1CCN(c3ccccc3F)CC1)CO2	-1	0.96
CC(=O)N1CCc2cc(S(=O)(=O)NCCC(=O)N3CCN(c4ccccc4F)CC3)ccc21	-1.1	0.92
O=C(Nc1cccc(-c2nc3ccccc3[nH]2)c1)c1cccc(Oc2ccccc2)c1	1.8	1.2
Cc1ccc(S(=O)(=O)Nc2nc3ccccc3nc2N2CCN(C)CC2)cc1	0.14	1
CCC(C(=O)Nc1cccc(Cl)c1)n1nc(-c2ccc(OC)cc2)ccc1=O (stereo not drawn)	-0.81	0.97
CC1(C(=O)NC2CCCCC2)CCC(=O)N1CCc1ccc(Cl)cc1 (stereo not drawn)	1.3	1.2
Cc1ccc(-n2c(Cc3cccn3C)nnc2SCC(=O)NCc2ccccc2)cc1	-2.4	0.9
CC1CCC(NC(=O)CC2Oc3ccccc3NC2=O)CC1 (stereo not drawn)	1.1	1
CCOc1ccc(C(O)(CC)CCN2CCCCC2)cc1 (stereo not drawn)	2.2	1.3
CCCCN(CCCC)S(=O)(=O)c1ccc(C(=O)Nc2ccccc2-c2nc3ccccc3[nH]2)cc1	0.048	1
CCC(C)NC(=O)c1ccc2c(c1)N(Cc1ccc(F)cc1)C(=O)CS2 (stereo not drawn)	-0.081	0.99
CN1C(=O)CSc2ccc(NC(=O)N3CCc4ccccc43)cc21	-1.3	0.95
COc1ccc(-c2cn3c4ccccc4n(CCN4CCCCC4)c3n2)cc1OC	-2.1	0.81
COc1cccc(-c2nn(C)c3sc(C(=O)Nc4cccc(C)n4)cc23)c1	-1.6	0.88
O=C1CN(C(=O)c2ccccc2)C(c2ccc(F)cc2)c2cc(Cl)ccc2N1 (stereo not drawn)	-1.9	0.8
CCC1=Nc2cc(C(=O)N3CCN(c4cccc(C)c4)C(C)C3)ccc2Sc2ccc(C)cc21 (stereo not drawn)	-4.2	0.71
Cc1ccc(-c2noc(CN(C(=O)COc3ccc(Br)c(C)c3)C(C)C)n2)cc1	0.39	1
Cc1ccc(C(=O)Nc2ccc(-c3nc4cc(C)ccc4o3)cc2)c(Cl)c1	-2	0.8
CCc1ccccc1NC1c2ccccc2C(=O)N1c1cc(C)ccn1 (stereo not drawn)	-0.52	0.99
O=C(Nc1sc2c(c1C(=O)Nc1ccccn1)CCCCC2)c1ccccc1F	0.084	1
Cc1ccc(S(=O)(=O)Nc2ccccc2C(=O)Nc2nc3c(s2)C(=O)CC(C)(C)C3)cc1	0.79	1
O=C(c1cc2ccccc2cc1OCC(O)CN1C(=O)c2ccccc2C1=O)N1CCCCC1 (stereo not drawn)	-1.2	0.92
Cc1c(Cc2ccccc2)sc(NC(=O)CCC(=O)O)c1C(N)=O	-2.1	0.96
CN1CCN(c2nc(-c3ccccc3O)nc3ccccc23)CC1	0.064	1
CCOC(=O)C1CCN(c2c(NCc3ccc(C(=O)N4CCCC4)cc3)c(=O)c2=O)CC1	-0.049	1
COc1ccc(Nc2c(-c3ccccn3)nc3ccc(C)cn23)cc1	-28*	0.06*
Cc1cc(N2CCN(c3ncccn3)CC2)nc2ccc(NC(=O)c3c(F)cccc3F)cc12	-0.095	1
O=C(C1CC1)N1CCc2cc(S(=O)(=O)NCc3ccccn3)ccc21	-2.4	0.92
CCc1cc2c(=O)c(-c3nc4ccccc4n3C)coc2c(CN(CC)CC)c1O	-0.88	0.78
O=C(COc1ccccc1)Nc1ccc(Cl)c(-c2nc3ncccc3o2)c1	-0.92	0.92
Cc1nc(Nc2ccc(C)c(F)c2)c2cc(C)sc2n1	0.91	1
COc1cccc(N2CCN(C(=O)CCNS(=O)(=O)c3ccc4c(c3)CCN4C(C)=O)CC2)c1	-2	0.89
COc1ccccc1NC(=O)CC(C)Cc1cc(C)cc(C)c1 (stereo not drawn)	-1.9	0.87
Cn1cc(CC(=O)NCc2ccc(F)cc2)c2ccccc21	-1.5	0.9
CCOC(=O)c1cn(OC)c2cc(Cl)c(F)cc2c1=O	-0.071	1
O=C(NCc1ccccn1)c1csc2c1CCCC2	1.9	1
Cc1ccc(S(=O)(=O)Nc2c(C)nc3nc[nH]n3c2=O)cc1	1.1	1.1
Cc1nc2cc(-c3cccc(F)c3)nn2c(C)c1CCC(=O)NCCC(C)C	-2	0.88

(list continues)
Molecule	CBX7 AlphaScr z-score	CBX7 AlphaScr
COc1ccc(OC)c2[nH]c(=O)c(CCNC(=O)C3CCCC3)cc12	2.2	1.2
Cc1ccccc1Cn1cc(NC(=O)c2cc(C3CC3)on2)cn1	1.8	1.1
O=C(Cn1nc(Cc2cccnc2)c2ccccc2c1=O)NCc1cccs1	-0.0023	1
CCCC1=Nc2cc(C(=O)NCCc3ccc(OC)c(OC)c3)ccc2Sc2ccccc21	0.21	1
Cc1nc2ncnn2c(C)c1CCC(=O)NCc1cccc(Cl)c1	1.7	1.1
COc1ccccc1Nc1ncc(C(=O)NCCCN2CCOCC2)c2ccccc12	2.1	1.3
COc1ccc2cc(CCNC(=O)CCC3CCCC3)c(=O)[nH]c2c1	0.94	1
CCOc1ccc2nc(N3CCCC(C(=O)NCc4ccccc4Cl)C3)sc2c1 (stereo not drawn)	0.65	1
COc1ccccc1CNC(=O)c1cc2sc(Cl)cc2n1C	-1.7	0.96
O=S(=O)(c1cccc(-c2nnc(-c3cccnc3)o2)c1)N1CCCCC1	-2.7&-0.72	0.83&0.97
COC1CCCCC1NS(=O)(=O)c1ccc(Cl)cc1 (stereo not drawn)	-0.87	0.97
COc1ccc(CCNC(=O)CCc2c(C)nc3cc(-c4ccccc4OC)nn3c2C)cc1OC	-0.37	0.99
CC(=O)Nc1ccc(-c2nc(-c3ccccc3)c3cc(C)ccc3n2)cc1	-0.44	0.89
C=CCN(c1ccccc1)S(=O)(=O)c1ccc2[nH]cc(C(=O)NCCCOC)c(=O)c2c1	0.34	1
Cc1ccc(S(=O)(=O)Nc2cccc(-c3cn4cccc(C)c4n3)c2)cc1	1.3	1.1
CCCCOCC(O)Cn1cnc2ccccc21 (stereo not drawn)	0.067	1
Cc1ccc(Cn2nnc3c(=O)n(CC(=O)Nc4ccc5c(c4)OCO5)cnc32)cc1	-1.5	0.91
O=C1CCCC2=C1C(c1ccccc1)Nc1ccc(C(=O)c3ccccc3)cc1N2 (stereo not drawn)	-0.89	0.78
CCc1cc2c(=O)c(-c3nc4ccccc4n3C)coc2c(CN2CCCCC2)c1O	0.43	1.1
COc1ccc(-c2cc(C(=O)Nc3ccc(OC)cc3OC)c3ccccc3n2)cc1	-0.18	0.82
CN(CCCC(=O)O)c1nc(-c2ccc(F)cc2)cs1	0.31	1
CCCCc1ccc(-c2nc(Nc3cccc(Cl)c3)c3ccccc3n2)cc1	2.6	1.2
CCOC(=O)CNC(=O)c1cn(CC(C)C)c(=O)c2cc(OC)c(OC)cc12	-0.43	0.97
Cc1ccc(C)c(-n2c(Cc3cc(=O)[nH]c(=O)[nH]3)nnc2SCc2ccccc2C)c1	0.21	1.1
CN1CCN(C(=O)CNC(=O)Cn2ccc3ccccc3c2=O)CC1	0.5	1.1
COc1ccc(N2CCN(C(c3cccs3)C(C)NS(=O)(=O)c3ccc(F)cc3)CC2)cc1 (stereo not drawn)	-6.6*	0.49*
O=C(Nc1ccccc1C(=O)NCc1cccnc1)c1ccc(Cl)cc1	0.7	1.1
COCCN(CCOC)S(=O)(=O)c1ccc(C(=O)Nc2nc(-c3ccc(OC)cc3)cs2)cc1	0.15	1
O=C1CN(C(=O)C2CCCC2)C(c2ccc(F)cc2)c2cc(Cl)ccc2N1 (stereo not drawn)	-2.8	0.85
CCOc1ccc(-n2nc(C(=O)Nc3cccc(Cl)c3)c3ccccc3c2=O)cc1	0.55	1
CCOc1cccc(C(=O)Nc2nnc(C3CCCCC3)s2)c1	1.2	1.1
CCC(C)NC(=O)c1c[nH]c2ccc(S(=O)(=O)N(CC)c3ccccc3)cc2c1=O (stereo not drawn)	-0.59	0.96
CC1(C)CC(=O)c2cc(OCC(=O)NCC3CCCO3)ccc2O1 (stereo not drawn)	0.92	1
CN(C)C(CNS(=O)(=O)c1ccc(Br)cc1)c1cccnc1 (stereo not drawn)	-0.34	0.96
COc1ccc(CC(=O)NC(C)C(c2cccs2)N2CCOCC2)cc1 (stereo not drawn)	-0.14	0.99
CCOc1ccc(C2C(=O)N(C3CCCCC3)CC(=O)N2C2CCCCC2)cc1OC (stereo not drawn)	-0.77	0.97
Cn1c(COc2cccc3cccnc23)nnc1SCC(=O)c1ccc(Cl)cc1	-0.52	0.98
Cc1ccccc1Nc1nnc(-c2ccc(C)c(S(=O)(=O)NCCO)c2)c2ccccc12	-4.1	0.78
CCCCCOc1ccc(CO[C@@H]2[C@H]3OC(C)(C)O[C@H]3O[C@@H]2C(O)CO)cc1 (stereo partly drawn)	-0.11	0.98
O=C(c1cnc(N2CCN(c3ccccn3)CC2)c2ccccc12)N1CCN(c2cccc(Cl)c2)CC1	-3.3	0.87
O=C(c1csc2c1CCCC2)N1CCN(c2ccc(Cl)cc2)CC1	0.86	1
CCCc1ccc(OCc2nc(-c3ccc(NC(=O)Cc4ccc(OC)cc4)cc3)no2)cc1	0.023	1
COc1ccc(C(O)Cn2c(=N)n(CCCN(C)C)c3ccccc32)cc1 (stereo not drawn)	-0.34	0.95
O=S(=O)(c1ccc(-c2csc(Nc3ccc(Cl)cc3)n2)cc1)N1CCOCC1	-0.44	0.98
Cc1ccc(-c2cn(-c3ccc(C)cc3)c(=O)[nH]2)cc1	-0.14	0.92
CC(C)(C)c1ccc(-c2nc(N3CCCC3)c3ccccc3n2)cc1	-0.75	0.94
COc1cccc(CNC(=O)CN2C(=O)CSc3ccc(S(=O)(=O)N4CCCC4)cc32)c1	-0.12	0.94
COc1ccc(CCNC(=O)c2cnc3ccccn3c2=O)cc1	0.92	1.1
CCCc1nc2ccccc2n1CC(O)COc1ccc(C(=O)O)cc1 (stereo not drawn)	0.89	1.1
CCc1nc2ccccc2n1CC(O)COc1ccc(C(C)C)cc1 (stereo not drawn)	-0.38	0.98

More results follow.
Molecule	CBX7 AlphaScr z-score	CBX7 AlphaScr
Cc1cc(C)nc(NC2=NCC(=O)N2c2ccc3c(c2)OCCO3)n1	-2.2	0.8
CCCCNC(=O)CN1CCN(Cc2cccc(C)c2)C1=O	2.3	1.1
CC(C)CCNC(=O)CN1C(=O)CCSc2ccccc21	1.4	1
CCCOc1ccc(NC(=O)C2CCCNC2=O)cc1 (stereo not drawn)	-0.57	0.98

Compound activity: PubChem, several laboratories

Only part of the results is shown; rates above refer to the full screens.
